# NPYLR7 agonist: activates Aedes aegypti NPYLR7 receptor; activation, % at 10 µM; HEK293T NPYLR7/Galpha15, GCaMP6s calcium fluorescence; 270,000 tested, 0.15% active; in the data active = activation above about 40%;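 also: 0% = vehicle and 100% = reference agonist at the receptor; some compounds past the cut are filed as inactive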
# NPYLR7 agonist max-min: second read-out of NPYLR7 agonist, no call of its own (marks repeat the call); activation, %; measured here: Max-Min RFU normalised activation; some inactives read as strong as hits;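 span of the calcium signal over five minutes; 0% = vehicle and 100% = native peptide agonist; compound fluorescence can raise it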
# Starred values were filed as active, the others as inactive; & = joins results of further samples.
canonical_smiles,NPYLR7 agonist,NPYLR7 agonist max-min
COc1ccc(-c2nnc(NC(=O)C(C)NC(=O)C34CC5CC(CC(C5)C3)C4)s2)cc1 (stereo unspecified),12,2
Cc1ccc(Oc2ccccc2NC(=O)CN2CCNC(=O)CC2)cc1,-2,-4
COc1oc(-c2ccc(Cl)cc2)nc1C(F)(F)F,0,0
CC1CCC(NC(=O)c2nc(NCc3ccccc3)ncc2Cl)CC1 (stereo unspecified),4,1
O=C(NCCc1ccccc1)N(Cc1ccoc1)CC(F)(F)F,-19,-24
Fc1ccc(CN2CCCN(Cc3nc(-c4ccccn4)no3)CC2)cc1,25,10
COc1ccc(-c2nc3ccc(C)cn3c2NC(=O)C2CCC2)cc1OC,6,8
COc1ccc(C(=O)N2C[C@@H](O)[C@H](NCCc3cnc[nH]3)C2)cc1,-3,-3
CCN1CCCC1CNC(=O)NC1CC(=O)N(c2ccc(OC)c(OC)c2)C1 (stereo unspecified),-3,2
CCc1nn(C)c(-c2nnc(C(F)(F)F)o2)c1Cl,-1,-2
CSC(=Nc1cccc([N+](=O)[O-])c1)SC,19,23
Cc1ccc(-n2c(SCCCC(=O)N3CCN(C(=O)c4ccc(Br)cc4)C(C)C3)nnc2-c2ccccc2)cc1 (stereo unspecified),18,20
O=C(NC1CCC(NC(=O)[C@H]2CCCN2C(=O)c2ccco2)CC1)c1ccccc1 (stereo partly specified),22,25
N#Cc1ccccc1CS(=O)(=O)NC1CCCCC1,-1,-3
O=C(CC(c1cccc2c1OCO2)c1c[nH]c2ccccc12)NCc1ccccc1 (stereo unspecified),2,13
Cc1csc(SCC(=O)N2CCCC(c3nc(SCC4CCCO4)ncc3C)C2)n1 (stereo unspecified),7,0
COc1cccc(Cn2nccc2NC(=O)c2scnc2C)c1OC,-5,-9
CCC1=C(C(=O)OC)C(c2ccc(NC(=O)Cc3ccc(OC)cc3)cc2)NC(=S)N1CC (stereo unspecified),17,18
NS(=O)(=O)c1cc(F)cc(NC(=O)N2CCc3ccccc3C2)c1,15,9
O=c1c[n+]([O-])c2ccccc2n1OCc1ccccc1[N+](=O)[O-],2,-7
Cc1oc(C(=O)Nc2n[nH]c(C(F)(F)F)n2)cc1S(=O)(=O)N1CCCC1,6,3
CC1CN(C(=O)CCCCSc2nnc(Cc3ccccc3)n2-c2ccc(Cl)c(Cl)c2)CCN1C(=O)c1ccc(Cl)c(Cl)c1 (stereo unspecified),0,5
O=C(Cc1csc(-n2cccc2)n1)NCCn1nc(-c2ccco2)ccc1=O,-2,0
O=C(COc1cc(F)ccc1F)Nc1cccc(-n2cnnc2)c1,15,11
CCn1ccnc1CN(C)C(=O)c1cc(COc2ccccc2SC)on1,10,9
CCOC(=O)C1=C(C)N=c2s/c(=C/c3ccc(Cl)c(Cl)c3)c(=O)n2C1/C=C/c1ccccc1 (stereo unspecified),-6,-6
O=C(c1nn(-c2ccccc2F)c(=O)n(Cc2ccc(C(F)(F)F)cc2)c1=O)N1CCCC1,10,14
CN1C(=O)C(=O)c2cc(Br)cc(Br)c21,-2,-6
CCn1nc(CC(C)C)cc1C(=O)N1CCC(CCC(=O)NCC2CCCO2)CC1 (stereo unspecified),3,0
Fc1ccccc1CSC1=NCCN1,2,11
NC(=O)c1cccnc1N1CCN(c2cccc(C(F)(F)F)c2)CC1,2,0
CCCSc1ncccc1C(=O)NC(C)CC(C)C (stereo unspecified),-6,-10
COCCN1CCCC2(CCN(Cc3cnn(C)c3C)C2)C1 (stereo unspecified),1,-3
Cc1ccoc1C(=O)N1CCN(CC(=O)NC(C)(C)C)CC1,-1,-1
Cc1occc(=O)c1OC(=O)c1ccco1,0,-3
Cc1cc(C)cc(C2(C(=O)Nc3nc(C)c(SCC(N)=O)s3)CC2)c1,-8,-9
CCn1c(SCc2cccc(C(=O)OC)c2)nnc1-c1c2c(nc3ccccc13)CCC2,-3,2
CCC(C)N(Cc1c(-c2ccccc2)noc1N1CCC(C)CC1)C(=O)c1ccc(F)cc1 (stereo unspecified),5,8
OCCCn1c(-c2ccccc2)cn2c3ccccc3nc12,-15,-21
COc1ccc(C2c3c(n[nH]c3-c3cccc([N+](=O)[O-])c3)OC(=N)C2C#N)cc1 (stereo unspecified),-5,-9
CCn1nc(C)c(Br)c1C(=O)Nc1ccc(-c2onc3c2CCc2ccccc2-3)cc1,8,5
CC1CCCN(Cc2nc3c(c(=O)n(C)c(=O)n3C)n2Cc2cccc3ccccc23)C1 (stereo unspecified),9,7
Cc1cccc(Nc2nc(N3CCOCC3)ncc2F)c1C,-25,-27
CCc1c(C)nc(-c2cccc(C(F)(F)F)c2)nc1N1CCN(S(=O)(=O)c2ccc(Cl)cc2)CC1,-5,-1
CC(C)C1C(=O)N(C)CCN1Cc1ccc(C(=O)Nc2cnn(C)c2)cc1 (stereo unspecified),2,1
NCCCCN,2&-7,21&-11
CCc1nc2n(n1)C(=O)C(C(c1ccc(OC)cc1)N1CCN(c3ccc(OC)cc3)CC1)S2 (stereo unspecified),-1,-4
CSCCC(C)NCC1CCN(C2CCCC2)CC1 (stereo unspecified),11,5
O=C(NC(C1CC1)C1CC1)c1ccccc1Br,0,0
O=C(NNC(=O)C1CCCC1)c1ccc(=O)n(Cc2ccc(Cl)cc2)c1,-9,-17
CC1=NC(C)=C(C#N)C(c2cc(Br)ccc2OC(F)F)C1C#N (stereo unspecified),-4,-10
CCCN(CC(=O)Nc1cc(Cl)ccc1C#N)Cc1nc2ccsc2c(=O)[nH]1,5,5
COc1ccc2nc(N(CCCN3CCOCC3)C(=O)c3ccc(Br)s3)sc2c1,-8,-12
O=C1CC2(CCN(C(=O)c3cccnc3Oc3ccc(Cl)cc3)CC2)Oc2ccccc21,-6,-10
CC(O)CN1C(=O)CSC1c1cccc(C(F)(F)F)c1 (stereo unspecified),-6,-11
COC(=O)CCc1c(C)nn(-c2ccc(C(=O)NCCCCc3ccccc3)cc2)c1C,2,1
Cc1ccc(NC(=O)CCNC(=O)C(C)(C)C)cc1C(=O)NC(C)C,7,4
CCOC(=O)N1CCN(c2c(NCCCN3CCCC3)c(=O)c2=O)CC1,8,6
CN(C)CCNc1ncnc2sc3c(c12)CCCC3,-2,-2
Cc1nc2sc(C)c(C)n2c(=O)c1NC(=O)CCSc1ccccc1,12,8

# Some values from above.
# In NPYLR7 agonist max-min, Cc1cccc(Nc2nc(N3CCOCC3)ncc2F)c1C has the entry -27
# In NPYLR7 agonist max-min, COc1ccc2nc(N(CCCN3CCOCC3)C(=O)c3ccc(Br)s3)sc2c1 has the entry -12
# In NPYLR7 agonist, CCn1c(SCc2cccc(C(=O)OC)c2)nnc1-c1c2c(nc3ccccc13)CCC2 has the entry -3

# New compounds follow:
canonical_smiles,NPYLR7 agonist,NPYLR7 agonist max-min
Cc1c(CC(=O)N2CCC3(CC2)CCN(Cc2ccccc2)C3=O)cnn1-c1ccccc1,6,9
c1ccc(-c2csc(N3CCOCC3)c2-c2ccccc2)cc1,2,-1
COCCCN(Cc1c(-c2ccccc2)noc1N1CCCC1)C(=O)c1cccc(C(F)(F)F)c1,11,13
Fc1ccc(-c2nc(NCc3ccc(C(F)(F)F)cc3)c3ccccc3n2)c(F)c1,0,1
COc1ccc(S(=O)(=O)Oc2cc(CNCC3CCCO3)ccc2OC)cc1 (stereo unspecified),7,6
CC1CCCC(C)N1C(=O)COc1ccc(C(=O)Nc2nncs2)cc1 (stereo unspecified),4,3
CN(C(=O)c1cnn2c(C(F)(F)F)cc(-c3ccc4c(c3)OCO4)nc12)C1CCCCC1,-2,-2
CC(C)C(=O)NNC(=O)COc1ccc(C(C)(C)CC(C)(C)C)cc1,-3,-8
Cc1ccc(S(=O)(=O)N2CCN(C(=O)NCc3ccc(OC(F)(F)F)cc3)CC2)s1,-1,2
O=C(CCCN1CCC(c2ccccc2)C1)c1ccc2c(c1)OCCO2 (stereo unspecified),-5,-7
CCn1ccnc1CS(=O)(=O)c1nccn1-c1cccc(C)c1C,6,3
COc1cc(-c2ccccc2)c2ccccc2n1,0,-1
CCn1nnc2cc(C(=O)OCC(=O)NC3CCC(C)CC3)ccc21 (stereo unspecified),1,11
COc1ccc(S(=O)(=O)NCCCN2CCOCC2)cc1N1CCN(C(=O)c2ccc(C#N)cc2)CC1,0,-1
O=c1[nH]c(=S)n(-c2ccc(Cl)c(Cl)c2)c(O)c1C=NCc1ccc(Cl)cc1,-1,-5
Cc1ccc(OCCCn2c(C3CC(=O)N(Cc4ccccc4)C3)nc3ccccc32)cc1 (stereo unspecified),0,-2
CCCNC(=O)CSc1nnc(SCC(=O)NC(C)c2ccccc2C)s1 (stereo unspecified),-6,-8
COC(=O)c1coc(CN2CCOC(c3ccc4cc(OC)ccc4c3)C2)n1 (stereo unspecified),-1,-7
CCC(CO)N(Cc1ccco1)C(=O)c1cccnc1OC (stereo unspecified),-3,1
O=S(=O)(Nc1ccc(F)cc1)c1ccc(S(=O)(=O)N2CCOCC2)cc1,4,3
O=C(Cc1ccc2c(c1)OCO2)N1CCc2c(cc(-c3ccccc3F)c(=O)n2Cc2ccncc2)C1,5,-6
COc1ccc(-n2c(SC(C)c3ccccc3)nc3c(c2=O)SCC3)cc1 (stereo unspecified),3,2
CN1CCC(NC(=S)NC2CCCCC2)CC1,5,1
CC1CCN(C(c2cccs2)C2Sc3nc(-c4ccco4)nn3C2=O)CC1 (stereo unspecified),2,3
Cc1nnc(SCC(=O)N2CC3(C)CC2CC(C)(C)C3)s1 (stereo unspecified),4,4
CSc1ccc(C=NN2CCN(Cc3ccccc3)CC2)cc1,0,-9
CCN=c1cc2oc3cc(NCC)c(C)cc3c(-c3ccccc3C(=O)OCC)c-2cc1C,159*,152*
Cc1ccc(C)c(-n2ncc3c2CCN(C(=O)c2ccc(Cl)nc2)C3)c1,2,28
COCCNC(=O)C(NC(=O)c1ccc(OC)cc1)C1CCN(S(=O)(=O)c2ccc(C)cc2)CC1 (stereo unspecified),9,10
c1cc(CNc2nccn3ccnc23)ccn1,4,1

# 3 structures already listed, ordered by count of non-hydrogen atoms, smallest number first:
canonical_smiles,NPYLR7 agonist,NPYLR7 agonist max-min
CSc1ccc(C=NN2CCN(Cc3ccccc3)CC2)cc1,0,-9
CCn1nnc2cc(C(=O)OCC(=O)NC3CCC(C)CC3)ccc21 (stereo unspecified),1,11
COCCCN(Cc1c(-c2ccccc2)noc1N1CCCC1)C(=O)c1cccc(C(F)(F)F)c1,11,13

# The main list resumes; the 5 compounds before the break are reprinted first.
canonical_smiles,NPYLR7 agonist,NPYLR7 agonist max-min
CSc1ccc(C=NN2CCN(Cc3ccccc3)CC2)cc1,0,-9
CCN=c1cc2oc3cc(NCC)c(C)cc3c(-c3ccccc3C(=O)OCC)c-2cc1C,159*,152*
Cc1ccc(C)c(-n2ncc3c2CCN(C(=O)c2ccc(Cl)nc2)C3)c1,2,28
COCCNC(=O)C(NC(=O)c1ccc(OC)cc1)C1CCN(S(=O)(=O)c2ccc(C)cc2)CC1 (stereo unspecified),9,10
c1cc(CNc2nccn3ccnc23)ccn1,4,1
Cn1cccc1C1CCCN1CC(=O)Nc1ccnn1C1CCCC1 (stereo unspecified),-13,-19
CCNC(=O)NC(=O)C(C)N(C)Cc1cccc(C#N)c1 (stereo unspecified),4,2
N#CCC(=O)NNC(=O)c1cccs1,-9,-11
COc1ccc(Cc2noc(CN3CCN(C4CCc5ccccc5C4)CC3)n2)cc1OC (stereo unspecified),12,-1
CC1CCc2c(sc3ncnc(NCCCO)c23)C1 (stereo unspecified),3,1
CC(=O)c1ccc(N2CCN(C(=O)C(C)Cc3c(C)nn(C)c3C)CC2)cc1 (stereo unspecified),9,10
O=C(CCCc1c[nH]c2ccccc12)OCn1nnc2ccccc2c1=O,7,13
CN1C(=O)C(=Cc2ccc(Oc3ccc([N+](=O)[O-])cc3[N+](=O)[O-])cc2)C(=O)N(C)C1=O,-15,-20
O=C(CSc1ncc(S(=O)(=O)c2ccccc2)c(=O)[nH]1)Nc1cccc(C(F)(F)F)c1,-6,-13
Cc1ncoc1C(=O)N1CCCC(C(=O)c2ccc(-c3ccccc3)cc2)C1 (stereo unspecified),-4,-7
CC(=O)Nc1ccc(CN2CCC2(C)C(=O)NCc2cccc3ccccc23)cc1 (stereo unspecified),-2,-2
CC(=O)N1CCN(C(=O)c2csc(COc3ccc([N+](=O)[O-])cc3)n2)CC1,1,7
CCOC(=O)c1cc(-c2cccc(NC(=O)c3c(F)cc(OC)cc3F)c2)n(-c2ccc(F)cc2)n1,-14,-16
N#Cc1c(N=CN2CCCCCC2)sc2c1CCCC2,8,6
CC(=O)c1ccc(N2CCN(S(=O)(=O)c3ccccc3Br)CC2)cc1,0,7
CC(=O)c1cccc(-c2ccc3c(c2)C(C)(Cc2ccc(S(C)(=O)=O)cc2)C(=O)N3)c1 (stereo unspecified),3,6
CCC(C)Sc1nnc(CNC(=O)C23CC4CC(CC(C4)C2)C3)n1CC (stereo unspecified),-4,-8
COC(=O)COc1cc(OC)c(OC)c(OC)c1,3,3
O=C(COc1coc(CN2CCc3ccccc3C2)cc1=O)N1CCCCCC1,2,2
Cc1noc(-c2cccnc2)c1C(=O)NCCCN(C)c1ccccc1,-1,0
Cc1cc([N+](=O)[O-])cc2c(N=NC(=O)COc3cccc(Br)c3)c(O)n(C)c12,-4,-7
COCCCN(Cc1nc(C(=O)OC)cs1)C(=O)Nc1ccc(Cl)cc1Cl,-4,4
CCOC(=O)N1CCN(C(c2ccc(Cl)cc2)c2c(O)cc(C)n(Cc3ccco3)c2=O)CC1 (stereo unspecified),13,3
CC1CCN(C(=O)COC(=O)c2cc(Br)c[nH]2)c2ccccc2S1 (stereo unspecified),5,2

# The list is partial; rates above refer to the full screens.
